KCNQ2 pot: potentiators of rat KCNQ2 potassium channel. O88943. CHO-K1 KCNQ2, FluxOR thallium flux fluorescence; stronger effect = higher value. B-score at 10 µM. 310,000 compounds, 0.54% hits. AID 2239;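 active means fluorescence ratio B-score at least 3 SD of library B-scores, with initial fluorescence B-score within 3 SD, cut at about 5.3 in these data; same plate scores as AID 2156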;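 further: B-score of peak minus minimum over baseline fluorescence ratio after K+ and Tl+ stimulus; positive B-score means potentiation of KCNQ2 with more thallium influx and brighter signal; only the inactives scoring about 0 or higher are listed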
Target sequence (O88943 whole entry, looked up): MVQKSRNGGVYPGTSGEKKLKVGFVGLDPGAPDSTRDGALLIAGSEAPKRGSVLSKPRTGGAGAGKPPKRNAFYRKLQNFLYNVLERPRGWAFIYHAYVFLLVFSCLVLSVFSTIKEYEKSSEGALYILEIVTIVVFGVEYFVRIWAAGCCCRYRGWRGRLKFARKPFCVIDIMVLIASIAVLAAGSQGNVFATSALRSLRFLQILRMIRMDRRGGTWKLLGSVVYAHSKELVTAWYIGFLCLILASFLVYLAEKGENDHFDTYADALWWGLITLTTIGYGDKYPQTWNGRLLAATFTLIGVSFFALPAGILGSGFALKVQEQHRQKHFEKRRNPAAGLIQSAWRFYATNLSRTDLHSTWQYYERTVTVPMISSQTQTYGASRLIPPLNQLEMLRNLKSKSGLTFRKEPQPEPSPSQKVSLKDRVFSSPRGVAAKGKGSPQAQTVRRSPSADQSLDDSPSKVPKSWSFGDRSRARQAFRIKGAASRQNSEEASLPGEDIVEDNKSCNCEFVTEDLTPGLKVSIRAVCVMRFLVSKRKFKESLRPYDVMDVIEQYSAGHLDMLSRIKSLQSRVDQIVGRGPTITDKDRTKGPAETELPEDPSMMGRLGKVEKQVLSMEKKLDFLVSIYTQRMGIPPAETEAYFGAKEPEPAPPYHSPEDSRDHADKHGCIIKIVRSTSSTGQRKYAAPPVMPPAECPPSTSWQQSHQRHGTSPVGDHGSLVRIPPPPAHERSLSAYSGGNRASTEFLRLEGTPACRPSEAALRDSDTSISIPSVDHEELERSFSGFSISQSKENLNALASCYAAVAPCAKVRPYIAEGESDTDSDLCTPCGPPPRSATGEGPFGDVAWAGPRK
KCNQ2 pot baseline: second read-out of KCNQ2 pot, no call of its own (marks repeat the call); B-score; compound at 10 µM; measured here: initial fluorescence intensity artifact check;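 brightness before thallium and not channel activity; 0 = typical well and far values either way flag optical interference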
An asterisk follows results filed as active; & = joins results of further samples.

KCNQ2 pot | KCNQ2 pot baseline | Compound
0.62 | 0.92 | CCN(CC)S(=O)(=O)c1cccc(C(=O)N/N=C(\C)c2ccc(O)cc2O)c1
0.02 | 0.37 | Cn1c(SCC(=O)N2CCCC2)nnc1-c1cccs1
0.58 | -0.23 | Cc1cc(C(=O)O)c2ccccc2n1
0.56 | -3.5 | CN(c1cccc(NC(=O)CN(c2cccc(Cl)c2)S(=O)(=O)c2ccc(Cl)cc2)c1)S(C)(=O)=O
1 | 1.1 | NNc1nccc(Nc2ccccc2C(=O)O)n1
0.02 | -0.25 | O=C(NCC12CC3CC(CC(C3)C1)C2)c1nn2c(c1Cl)NC(c1ccco1)CC2C(F)(F)F (stereo not given)
1.2 | -0.36 | CCN1CCN(Cc2ccc(NC(=O)c3cc(NC(=O)c4cncc(-c5cccs5)c4)cc(OC)c3)cc2C(F)(F)F)CC1
0.98 | 0.15 | Cn1cccc1CC(=O)N/N=C/c1ccc(C(C)(C)C)cc1
1.8 | 0.29 | CCOC(=O)C1(Cc2cccc(F)c2)CCN(CCCn2cccn2)CC1
0.25 | -1.1 | CC(C(=O)NCCC1=CCCCC1)N1C(=O)c2ccccc2C1=O (stereo not given)
1.1 | 0.14 | O=C(NCc1cccnc1)c1cccc(Cl)c1
0.97 | 0.56 | CCOc1cc(C(=O)Nc2ccc(S(=O)(=O)Nc3cnc4ccccc4n3)cc2)cc(OCC)c1OCC
0.07 | 0.53 | CN(C)CC(=O)N1c2ccccc2Sc2ccc(Cl)cc21
0.04 | 0.56 | CC(C)C(C(=O)NCc1ccco1)N(C(=O)CNS(=O)(=O)c1ccc(Cl)cc1)C1CCCC1 (stereo not given)
1.4 | -0.14 | CCOc1ccccc1N(C)C(=O)CCS(=O)(=O)c1ccc2c(c1)NC(=O)C(C)S2 (stereo not given)
0.26 | 1.9 | O=C(Cn1cncn1)NCc1ccccc1Br

Arranged by number of heavy atoms (smallest number first): part of the list above
KCNQ2 pot | KCNQ2 pot baseline | Compound
0.07 | 0.53 | CN(C)CC(=O)N1c2ccccc2Sc2ccc(Cl)cc21
0.25 | -1.1 | CC(C(=O)NCCC1=CCCCC1)N1C(=O)c2ccccc2C1=O (stereo not given)
1.4 | -0.14 | CCOc1ccccc1N(C)C(=O)CCS(=O)(=O)c1ccc2c(c1)NC(=O)C(C)S2 (stereo not given)

Other entries follow:
KCNQ2 pot | KCNQ2 pot baseline | Compound
0.26 | -0.99 | COc1cccc(N2CCN(C(=O)c3cc(-c4ccc(F)cc4)[nH]c3C)CC2)c1
1.4 | 0.81 | Cc1occc1C(=O)NNC(=O)C1CC1
1.5 | -0.01 | COc1ccccc1N1CCN(C(=O)C2CC=CCC2C(=O)O)CC1 (stereo not given)
0.02 | 0.28 | CSc1ncc(Cl)c(C(=O)Nc2nnc(SC)s2)n1
1.7 | -1.6 | O=C(NNC(=S)Nc1ccc(F)cc1)C1CC1c1ccc(Cl)cc1 (stereo not given)
0.81 | -0.26 | COc1cccc(CN(C(=O)c2cnccn2)C(C(=O)NC2CCCCC2)c2cc(OC)c(OC)c(OC)c2)c1 (stereo not given)
0.6 | -3.4 | COc1cc(CN2CCN(c3ccccc3C)CC2)cc([N+](=O)[O-])c1O
0.05 | 2.4 | Nc1nc(-c2ccc([N+](=O)[O-])cc2)c(C(=O)Nc2ccc(Cl)cc2)s1

Record cards, as listed above. Screens in order: KCNQ2 pot | KCNQ2 pot baseline
`Cc1occc1C(=O)NNC(=O)C1CC1` reads 1.4 | 0.81
`Cn1c(SCC(=O)N2CCCC2)nnc1-c1cccs1` reads 0.02 | 0.37
`CC(C(=O)NCCC1=CCCCC1)N1C(=O)c2ccccc2C1=O` (stereo not given) reads 0.25 | -1.1

Continued.
KCNQ2 pot | KCNQ2 pot baseline | Compound
0.69 | -0.66 | O=C1CCC(C(=O)OCc2ccccc2)N1 (stereo not given)
0.06 | 0.36 | COc1ccc(CN2CCNC(=O)C2CC(=O)NC2Cc3ccccc3C2)c(OC)c1 (stereo not given)
0.99 | -1.3 | COc1cc(/C=N/NC(=O)c2cccc([N+](=O)[O-])c2)ccc1OCc1ccccc1
1.9 | 1.6 | O=C(O)CCCC(=O)Nc1ccc(C(=O)NCc2cccnc2)cc1
0.06 | -0.01 | COc1ccc2nc(Nc3nc4cc5c(cc4s3)OCO5)sc2c1
0.38 | 0.28 | CCOC(=O)C1CCCN(C(=O)Cn2nc(C)n3nc(-c4ccccc4)cc3c2=O)C1 (stereo not given)
1.2 | -0.01 | Cc1ccc(C(=O)NC(=O)CSc2ncccc2C(=O)O)cc1
0.11 | 0.56 | CCOc1ccc(OCC)c(NC(=O)CN2CCN(CC(=O)NC(C)C)CC2)c1
0.2&0.01 | 0.06&-1.1 | CCN(CC)CCNC(=O)c1ccc(NC(C)=O)cc1
6.6* | -0.93* | NS(=O)(=O)c1ccc(NCc2ccccc2OCc2ccc(F)cc2)cc1
1.4 | 2 | Cc1cccnc1NC(=O)Nc1cccc(Cl)c1
0.93 | 0.25 | COC(=O)c1ccc(NC(=O)c2cccc(C)c2[N+](=O)[O-])cc1
1.1 | 0.5 | CNC(=S)N(CCc1c(C)[nH]c2ccc(Cl)cc12)Cc1cccnc1
2.5 | -2.4 | Cc1ccc2c(c1)NC(=O)C(CC(=O)NCCCN1CCCCC1C)O2 (stereo not given)
1.8 | 0.42 | Cn1c(N2CCN(C(=O)NC34CC5CC(CC(C5)C3)C4)CC2)nc2ccccc21
0.14 | -0.03 | O=C(CNCc1ccco1)Nc1cccc(S(=O)(=O)N2CCCCC2)c1
0.3 | -1.3 | Cc1ccc(C(C)NC(=O)c2c(-c3ccccc3)noc2C)cc1C (stereo not given)
2.8 | -1.2 | O=C(NCCOc1ccc(F)cc1)C1CCN(S(=O)(=O)c2ccccc2)CC1
1.2 | 1.5 | CCOCCCNC(=O)c1ccc2c(c1)ncn2-c1ccc(CC)cc1
0.2 | -0.7 | Cc1onc(-c2c(Cl)cccc2Cl)c1C(=O)NC(=S)Nc1sc2c(c1C(N)=O)CCC(C)C2 (stereo not given)
1.7 | 0.74 | COc1cccc(CNC(=O)CCS(=O)(=O)c2ccc3c(c2)oc(=O)n3C)c1
1.2 | -1.9 | Cc1ccc(C(=O)O)cc1NC(=O)Nc1cccc2ccccc12
0.24 | 0.24 | CN1C(=O)C(C)(C)c2cc(S(=O)(=O)N3CCN(c4ccccc4F)CC3)ccc21
1.6 | -1.3 | CCCCc1ccc(NC(=O)CSCc2cc(=O)[nH][nH]2)cc1
0.35 | 3 | Cc1ccc(C2C(C(=O)c3cc4ccccc4o3)=C(O)C(=O)N2c2cc(C)on2)cc1 (stereo not given)
0.39 | 1 | CC(=O)N1N=C(c2ccc(C)cc2)OC1c1ccc(C)cc1 (stereo not given)
0.29 | -0.04 | Cc1cc(C)cc(NC(=O)C2CC3CCC2C3)c1 (stereo not given)
6.7* | 1.4* | COc1ccc(CCC(=O)NCc2cccc(C(F)(F)F)c2)cc1
0.07 | 1.7 | CCOC(=O)Nc1c(C(=O)OC)[nH]c2cc(OC)ccc12
0.56 | 0.62 | CCC(C(=O)O)N1C(=O)/C(=C/C(C)=C/c2ccccc2)SC1=S (stereo not given)
0.35 | -2.2 | COc1cccc(C=Nc2cccnc2)c1O
1 | -1.8 | Cc1nc(CNS(=O)(=O)c2cccnc2)cs1
0.87 | -1.2 | O=C(Nc1ccccc1C(=O)N1CCCC1)c1ccc(Cl)c([N+](=O)[O-])c1
0.5 | -1.4 | CCOC(=O)N/N=C/c1cc(C)n(-c2ccccc2)c1C
1 | 1.5 | Cc1ccc(C)c(N2CCN(CCN3CCCCC3)CC2)c1
1.3 | -1.1 | CCOC(=O)C1(Cc2cccc(OC)c2)CCN(Cc2ccc3c(c2)OCCO3)CC1
0.47 | 1.9 | COC(=O)C1=C(C)N(CCCC(=O)O)C(=O)NC1c1ccc(-c2ccccc2)cc1 (stereo not given)
0.59 | 0.49 | COc1ccc(-c2c[n+](CC(=O)c3cccs3)c3n2CCC3)cc1
1.1 | 0.65 | COc1cc2[nH]c(=O)n(CCC(=O)NCCC(C)C)c(=O)c2cc1OC
1.8 | 0.27 | COc1cccc(/C=N/Nc2ncnc3c2[nH]c2ccc(C)cc23)c1OC
0.56 | -0.47 | NC(=O)COC(=O)c1ccccc1SCC(=O)NC1CCCCCC1
1.8 | -0.71 | CC(CCc1ccccc1)NCC(O)c1cccc([N+](=O)[O-])c1 (stereo not given)
0.81 | 1.1 | COc1ccccc1C1C(C#N)=C(N)Oc2c1oc(CO)cc2=O (stereo not given)
0.14 | 1.1 | CC(=O)NC12CC3CC(C1)CC(C(=O)Oc1ccc(N(C)S(=O)(=O)c4cc(C)ccc4C)cc1)(C3)C2
0.27 | 0.67 | COc1cc(C(=O)NCC(=O)NCCSc2ccc(Br)cc2)cc(OC)c1OC
1.7 | 0.01 | C/C=C\C=C/C(=O)Nc1cccc(C2=NOC3(C2)C[C@@H](C(N)=O)N(C(=O)c2ccccc2)C3)c1 (stereo not given in full)
0.08 | 0.22 | COc1ccc(NC(=S)c2ccncc2)cc1
0.74 | -0.89 | COc1c(Cl)cc(C(=O)Nc2ccccc2C(=O)O)cc1Cl
0.72 | -1.3 | CCCOc1ccc(S(=O)(=O)N2CCCC2)cc1[N+](=O)[O-]
0.06 | 1.1 | O=C(CSCc1ccccc1)Nc1cc([N+](=O)[O-])ccc1F
18* | 0.03* | N#CC(c1ccc(Cl)cc1)c1ccc2c(C(F)(F)F)cc(C(F)(F)F)nc2n1 (stereo not given)
0.98 | -0.03 | CCOC(=O)c1cc2c(C)nn(-c3ccccc3)c2s1
3.3 | -0.19 | O=C(c1ccc(CNS(=O)(=O)c2cccc(Cl)c2)cc1)N1CCCC1
1.4 | -2.5 | Cc1cc2c(cc1S(=O)(=O)Nc1ccc(OC(F)(F)F)cc1)OCC(=O)N2
12* | -2.4* | CC(=O)C1=C(C)NC(SCC(=O)c2ccc(C)cc2)=C(C#N)C1c1ccco1 (stereo not given)
1.4 | 0.69 | CS(=O)(=O)N(Cc1ccccc1F)c1ccccc1

Further structures.
KCNQ2 pot | KCNQ2 pot baseline | Compound
1.3 | 3 | CCOC(=O)Cc1csc(NC(=S)NC(=O)c2ccc(C)cc2)n1
0.34 | -0.79 | O=C1OCC2=C1C(c1ccc3c(c1)OCO3)Sc1ccccc1N2 (stereo not given)
1.8 | 0.8 | COc1ccc(Cc2nnc(Nc3ccc4c(c3)OCCO4)[nH]c2=O)cc1
1 | -1.7 | O=C(NC1CC1)c1cc(-c2ccccn2)nc2ccccc12
2.1 | -0.57 | CCOC(=O)CN1c2ccccc2NC(=O)CC1C (stereo not given)
0.49 | -0.36 | CCCN1CCN(CCCNC(=O)C2CCCN(c3nc4ccc(OCC)cc4s3)C2)CC1 (stereo not given)
0.51 | -1.2 | Cc1nn2c(C(F)(F)F)cc(-c3ccc(Cl)cc3)nc2c1C(=O)N1CCOCC1
0.02 | 0.42 | Cc1ccc(-n2ncc3c(SCC(N)=O)ncnc32)cc1C

Given with each value named: part of the list above.
COc1ccc(Cc2nnc(Nc3ccc4c(c3)OCCO4)[nH]c2=O)cc1
  KCNQ2 pot: 1.8
  KCNQ2 pot baseline: 0.8
O=C(NC1CC1)c1cc(-c2ccccn2)nc2ccccc12
  KCNQ2 pot: 1
  KCNQ2 pot baseline: -1.7
CCOC(=O)CN1c2ccccc2NC(=O)CC1C (stereo not given)
  KCNQ2 pot: 2.1
  KCNQ2 pot baseline: -0.57
CCCN1CCN(CCCNC(=O)C2CCCN(c3nc4ccc(OCC)cc4s3)C2)CC1 (stereo not given)
  KCNQ2 pot: 0.49
  KCNQ2 pot baseline: -0.36

Next part:
KCNQ2 pot | KCNQ2 pot baseline | Compound
0.73 | -0.04 | O=C(Nc1cccc(C(=O)N2CCCCC2)c1)c1ccc(Cl)cc1
0.1 | 0.29 | CCOc1ccc(OCc2cccc(C(=O)N/N=C/c3cccnc3)c2)cc1
0.68 | -0.27 | CCOC(=O)CN1C(=O)S/C(=C\c2ccc(-c3cccc(C(=O)O)c3C)o2)C1=O
0.02 | -0.79 | COCCNC(=O)c1c[nH]c2ccc(S(=O)(=O)N3CCc4ccccc43)cc2c1=O
0.04 | -0.49 | CCOCCCn1cnc2c(c1=O)c1nc3ccccc3nc1n2-c1ccc(C)cc1
1.1 | 1.7 | Oc1ccccc1OCC(O)c1ccccc1 (stereo not given)
0.59 | 0.32 | CCOC(=O)CSc1nnc(CNC(=O)c2ccco2)n1C
0.07 | 1.8 | O=C1c2ccccc2C(=O)N1CCc1csc(NNc2nc(CCN3C(=O)c4ccccc4C3=O)cs2)n1
0.47 | 0.03 | Cc1ccc(CCCOC(=O)C[N+]2(C)CCOCC2)cc1
1.1 | 0.5 | O=C(COC(=O)c1ccc(O)cc1)Nc1ccccc1[N+](=O)[O-]
0.4 | 1.1 | Cc1c(C(=O)N2CCCCC2)c(S(=O)(=O)N2c3ccccc3CC2C)c(C)n1C (stereo not given)
0.05 | 1.4 | CC(C)Cn1cnc2c1c(=O)n(CC(=O)N(C)C)c(=O)n2Cc1ccccc1
0.58 | -1.1 | CCc1nc(C)ccc1OCC(=O)O
0.1 | -0.03 | Cc1nc(NC(=O)/C=C/c2ccccc2)n[nH]1
0.32 | 1.3 | COc1ccc(NC(=O)CSc2nnc(-c3ccccn3)n2N)cc1Cl
0.3 | 0.45 | Cc1cc(C(=O)CSc2nnc(-c3ccc(F)cc3)o2)c(C)n1CC1COc2ccccc2O1 (stereo not given)
1.2 | -1.4 | Cc1ccc(S(=O)(=O)Nc2nc(C)c(C)s2)cc1
2.1 | 2.4 | Cc1c(C)c2ccc(Oc3ccc([N+](=O)[O-])cc3C(F)(F)F)c(C)c2oc1=O
0.04 | 1.6 | Cc1cc(OCCN2CCOCC2)nc2ccccc12

Screens (PubChem)

An excerpt; rates above refer to the full screens.
